Vaccinia Venus = inhibitors of vaccinia virus (Venus reporter); hit rate 0.46% among 330,000; Potency, µM (top dose mostly 36.5 µM), inactives show top-dose activity change, negative = inhibition, usual class: inhibitors; AID 720580; Vaccinia virus Venus reporter expression, fluorescence; active means well fitted inhibition curve with a large enough effect; inconclusive means small, poorly fitted or top-dose-only effect; inactive means no such curve, though single readings can be large or run the other way; tested in A549 cells; further: nearly all actives have a fitted effect of over 30% in size; inactives centre near -10
VACV mCherry inh = inhibitors of vaccinia virus infection (mCherry reporter signal); Vaccinia virus mCherry reporter infection, fluorescence; about a quarter of the inactives have no number; Potency, µM (titrated, usually from 36.5 µM), without a hit: at the highest dose activity change, negative = inhibition, hits mostly inhibitors; hit rate 0.63% among 310,000; AID 720579; active = well fitted inhibition curve with a large enough effect; inconclusive = small, poorly fitted or top-dose-only effect; inactive = no such curve, though single readings can be large or run the other way; tested in A549 cells; further: nearly all actives have a fitted effect of over 35% in size; inactives centre near -10
* hit, by the source's call; i = inactive; u = inconclusive; x = no result given; & = joins results of further samples; [ ] = another dose, or the depositor's remark. On the % scale 0 is the no-effect control and ±100 the full control effect; potency means the concentration at half of the fitted maximal effect.

A first look (two entries):
Values run as follows: VACV mCherry inh | Vaccinia Venus
CC1(C)C(=O)N(c2ccccc2F)C(=O)c2ccccc21
→ -8.2% | -0.6%
COc1ccc(-c2ccc3nccn3c2)cc1
→ 27.3% | -9.9%

Results, from the start:
Values run as follows: VACV mCherry inh | Vaccinia Venus
CC1(C)C(=O)N(c2ccccc2F)C(=O)c2ccccc21
→ -8.2% | -0.6%
COc1ccc(-c2ccc3nccn3c2)cc1
→ 27.3% | -9.9%
O=C(CN1CCN(c2ccccc2)CC1)Nc1cccc(C(F)(F)F)c1
→ -11.3% | -13.5%
Cc1cccc(CNC(=O)c2ccc(Cn3c(=O)c4cccn4c4cccnc43)cc2)c1
→ -13.7% | -13.7%
COc1ccc(C[C@@H]2OC3(C=CC(=O)C=C3)O[C@H]2Cc2ccc(OC)cc2)cc1
→ u | 10µM*
CS(=O)(=O)c1ccc2nc(NC(=O)Nc3cccc(Cl)c3)sc2c1
→ -14.0% | u
O=C(O)c1cccc(Nc2nc(N3CCOCC3)nc(N3CCOCC3)n2)c1
→ i | -12.5%
COC(=O)C1C(=O)c2c([nH]c(C(=O)OCCOC(C)C)c2C)CC1C (stereo not given)
→ x | -9.8%
O=C(COc1ccc(F)cc1)NNC(=O)Cn1ccc(C(F)(F)F)n1
→ -5.5% | -11.8%
COc1ccc(N2CCN(C3CCCN(C(=O)c4cccc(C)n4)C3)CC2)cc1 (stereo not given)
→ -20.2% | -13.6%
Cc1nc(NC(=O)CSc2ccc(-c3nc4ccccc4[nH]3)cn2)sc1C
→ 3.3% | -6.7%
CN(C)C(CNC(=O)c1ccc([N+](=O)[O-])cc1Cl)c1ccco1 (stereo not given)
→ -18.8% | -9.7%
Oc1csc(Cc2nc(-c3ccc(Br)cc3)cs2)n1
→ u | 0.8%
O=C1CCN(C(=S)NCCc2ccccc2)CC1
→ u | -2.4%
Cc1cccc(S(=O)(=O)NC(=O)C2(C)CCN2C(=O)Cc2ccc(-c3ccccc3)cc2)c1 (stereo not given)
→ 36.4%[activator] | -9.8%
Cc1ccc(C(=O)Nc2cccc(C(F)(F)F)c2)cc1NC(=O)c1csc(-c2ccncc2)n1
→ -19.8%&-5.8% | u
O=C(NCc1ccccc1)NCC12CC3CC(CC(C3)C1)C2
→ -12.2% | -14.1%
COc1ccc(C2Sc3ccccc3N(CCN(C)C)C(=O)C2OC(C)=O)cc1 (stereo not given)
→ -22.2% | -17.3%
Cc1ccc(-n2[nH]c(=O)c(-c3ccccn3)c2C)cc1
→ -8.8% | -15.5%
C[C@]12c3[nH]c4ccc(Cl)cc4c3CCN1C(=O)[C@@H](CC(=O)NCCN1CCOCC1)C[C@@H]2C(=O)N1CCOCC1
→ i | -16.5%

Random excerpt: 7 entries already listed
Values run as follows: VACV mCherry inh | Vaccinia Venus
COc1ccc(N2CCN(C3CCCN(C(=O)c4cccc(C)n4)C3)CC2)cc1 (stereo not given)
→ -20.2% | -13.6%
CC1(C)C(=O)N(c2ccccc2F)C(=O)c2ccccc21
→ -8.2% | -0.6%
COc1ccc(C[C@@H]2OC3(C=CC(=O)C=C3)O[C@H]2Cc2ccc(OC)cc2)cc1
→ u | 10µM*
Cc1nc(NC(=O)CSc2ccc(-c3nc4ccccc4[nH]3)cn2)sc1C
→ 3.3% | -6.7%
COc1ccc(-c2ccc3nccn3c2)cc1
→ 27.3% | -9.9%
Oc1csc(Cc2nc(-c3ccc(Br)cc3)cs2)n1
→ u | 0.8%
CN(C)C(CNC(=O)c1ccc([N+](=O)[O-])cc1Cl)c1ccco1 (stereo not given)
→ -18.8% | -9.7%

One compound at a time, from the list above.
`Cc1cccc(CNC(=O)c2ccc(Cn3c(=O)c4cccn4c4cccnc43)cc2)c1` is listed with VACV mCherry inh: -13.7%; Vaccinia Venus: -13.7%
`CS(=O)(=O)c1ccc2nc(NC(=O)Nc3cccc(Cl)c3)sc2c1` is listed with VACV mCherry inh: -14.0%; Vaccinia Venus: u

More compounds follow:
Values run as follows: VACV mCherry inh | Vaccinia Venus
C=CCn1c(SCC#N)nc2sc(CC)cc2c1=O
→ i | -23.6%
CCCCCCCCNCCS(=O)(=O)NCCCCCCCC
→ i | -15.5%
O=C(COC(=O)c1cc(S(=O)(=O)N2CCOCC2)ccc1F)Nc1ccccc1C(F)(F)F
→ -14.3% | -3.4%
Cc1onc(-c2ccccc2Cl)c1C(=O)N1CCC(C(N)=O)CC1
→ -14.9% | -13.6%
O=C(NC(c1ccccc1)c1ccccc1)C1CCCC1
→ i | -5.5%
O=C(NCCc1cccc(F)c1)C1CC(O)CN1C(=O)Nc1ccccc1 (stereo not given)
→ -29.4% | -3.5%
Cc1csc(SCc2nnc(-c3ccc(Cl)cc3)o2)n1
→ -13.7% | -4.8%
Cc1ccc2nc(SCC(=O)Nc3ccc4[nH]c(=O)[nH]c4c3)[nH]c2c1
→ 2.5% | 7.9%
COC(=O)c1cc2sccc2n1CC(=O)N1CCCc2ccccc21
→ -17.8% | -15.4%
C#CCOCCOCCOCCNc1nc(N2CCN(C(=O)CCCCCCCCCCNC(=O)[C@H]([C@@H](C)CC)n3cc(CCCCN=C(N)N)nn3)CC2)nc(N2CCN(C(=O)CCCCCCCCCCNC(=O)[C@H](CO)n3cc(CCCSC)nn3)CC2)n1
→ -6.5% | 15.8µM*
CC(=O)OC1CCC2C3CCC4=C(CC(F)C(=O)C4)C3CCC12C (stereo not given)
→ -9.9% | -23.1%
Cc1cc(C(=O)NNC(=O)Nc2cccc(C(F)(F)F)c2)no1
→ -10.5% | -9.2%
O=C1CNC(=O)c2c(nc3n2CCC3)N1
→ -9.2% | 3.2%
COc1nccnc1NS(=O)(=O)c1ccc(NC(=S)NC(=O)c2ccccc2F)cc1
→ -12.4% | -12.3%
O=C(Nc1cccnc1)c1ccc(Cl)cc1[N+](=O)[O-]
→ 0.7% | -8.9%
O=C1CC2(CCN1)CCN(Cc1ccccc1)CC2
→ i | -10.0%
Cc1cnc(C(=O)NCc2c(C)ncc3c2CCN(C(=O)/C=C/c2cccs2)C3)cn1
→ -13.9% | -5.7%
CCN1CCN(c2ccc(S(=O)(=O)N3CCOCC3)cc2N)CC1
→ -14.6% | -9.3%
C=C1C(=O)O[C@H]2C[C@@H](C)[C@@H]3C=CC(=O)[C@@]3(C)C[C@H]12
→ u | u
N/C(=N\OC(=O)c1ccc([N+](=O)[O-])cc1Cl)c1ccccn1
→ 2.82µM* | u
Cc1c(/C=C2\SC(=O)N(CC(=O)Nc3ccc4c(c3)OCO4)C2=O)c2ccccc2n1C
→ -16.9% | -7.4%
COc1ccc(-c2cc(OC(=O)c3ccc(F)cc3)c3c(C)oc(C)c3c(=O)c2)cc1OC
→ -8.4% | -7.5%
COc1cc(NC(=S)Nc2ccc(N(C)C(C)=O)cc2)cc(OC)c1
→ -17.7% | -12.0%
COCCSc1nc2c(c(=O)[nH]c(=O)n2C)n1CCC(C)C
→ -4.1% | -25.4%
CCOc1ccc(C2CC(=O)NC(NC(=O)c3cccc(Cl)c3)=N2)cc1 (stereo not given)
→ -14.6% | -23.0%
CCNc1nc(Oc2ccc(C#N)cc2)cc(C(F)(F)F)n1
→ -21.7% | -7.3%
COc1cccc(NC(=O)CCc2nc(-c3ccc(C(C)(C)C)cc3)no2)c1
→ 0.8% | -1.9%
Cc1cccc(NC(=O)c2c(N)sc3c2CCC(C)C3)c1 (stereo not given)
→ -5.2%[7.34 µM] | -5.7%[7.34 µM]
Cc1c(C(=O)c2ccc3c(c2)OCO3)ccc2c1OCO2
→ -3.5% | -8.1%
c1ccc(Oc2cccc(Oc3ccccc3)n2)cc1
→ -6.9% | -13.9%
O=C(CSc1ccccc1)Nc1cccnc1
→ -10.4% | -4.8%
CCN1C(C)=C(C)S/C1=C1\SC(=S)N(N)C1=O
→ 3.6% | 2.8%
CC1=C(C)CS(=O)N(c2ccc(S(N)(=O)=O)cc2)C1 (stereo not given)
→ i | -18.2%
COC(=O)CSc1nnc(-c2cccnc2)n1-c1cccc(OC)c1
→ -2.0% | 0.0%
O=C(Nc1cc(S(=O)(=O)N2CCOCC2)ccc1N1CCCC1)c1ccccc1F
→ -14.4% | 1.7%
COC(=O)c1ccc(OCC2c3cc(OC)c(OC)cc3CCN2C(C)=O)cc1 (stereo not given)
→ i | -9.5%
Cc1c(Cl)cccc1NC(=O)CSCc1cc(=O)[nH][nH]1
→ -10.8% | -6.9%
Cc1c(-c2ccccc2)oc2c(C(=O)N3CCN(c4ccccc4F)CC3)cccc2c1=O
→ 19.6% | -2.3%
C/C(CCC(C)C)=N\Nc1cc(C)c2ccccc2n1
→ i | -0.8%
Cn1c(=O)c2c(ncn2CC(=O)N/N=C/c2cn[nH]c2-c2ccc(F)cc2)n(C)c1=O
→ -16.7% | 7.7%
CCn1c(COc2ccc(C)cc2)nnc1SCC(=O)C(C)(C)C
→ x | -14.3%
Clc1ccc(Nc2ccc(-n3ccnc3)nn2)cc1Cl
→ x | u
Cc1cccc(N(C(=O)c2csnn2)C(C(=O)NC2CCCCC2)c2ccncc2)c1 (stereo not given)
→ -7.3% | 6.9%
O=c1[nH]c(CN2CCCCC2)nc2c1C1(CCCCC1)Cc1ccccc1-2
→ x | -8.1%
Cc1cccc(NC(=S)N2CCC(C(=O)c3ccc(F)cc3)CC2)c1
→ u | -11.8%
O=C(O)c1ccccc1NCc1ccco1
→ -13.3% | -3.7%
CC(=O)c1cc(-c2ccccc2)n(CC(=O)NC2CCCCCC2)c1C
→ -23.3% | -14.7%
COc1ccc(CN2CCN(C(=O)c3ccco3)CC2)cc1OCc1ccccc1
→ x | -13.6%
Cc1cc(NC(=O)CSc2ncc(C(=O)Nc3ccccc3)c(=O)n2C)no1
→ -14.2% | -9.8%
Cc1cccn2c(=O)nc(SCC(=O)N3CCCC3)nc12
→ i | -7.6%
CCOP(=S)(OCC)Oc1cc(C)oc(=O)c1Cl
→ i | 7.1%
O=C(Nc1ccccc1C(F)(F)F)c1noc2c1CCCC2
→ -9.4% | 1.1%
O=C(NC(=S)Nc1nc(-c2ccc(Cl)cc2)cs1)c1cccs1
→ i | 1.9%
C/C(=C/Cc1c(O)cc2oc(C)cc(=O)c2c1O)COC1OC(CO)C(O)C(O)C1O (stereo not given)
→ i | -6.2%
CC(=O)OC1CC(OC(C)=O)[C@]2(C)C(CC(OC(C)=O)[C@]3(C)C2CC[C@@]2(C)C(c4ccoc4)OC(=O)C4O[C@]432)C1(C)C (stereo not given in full)
→ i | -6.0%
NC(N)=Nc1nc(C2COc3ccccc3O2)cs1 (stereo not given)
→ -4.2% | -15.8%
COCCn1c(SCC(=O)Nc2ccc(NC(=O)c3ccco3)c(OC)c2)nc2ccccc2c1=O
→ -26.3% | -23.1%
COCCNC(=O)c1onc(CSc2ccc(Cl)cc2)c1C(=O)O
→ -1.2% | -5.4%
O=C(NCC(c1ccc2c(c1)OCO2)N1CCN(c2ccc(F)cc2)CC1)c1cccc([N+](=O)[O-])c1 (stereo not given)
→ -24.5% | -20.2%
CCOC(=O)N1CCc2c(sc(NCc3cccc(F)c3)c2C(=O)Nc2ccccc2OCC)C1
→ -10.8% | -7.6%

The results go on:
Values run as follows: VACV mCherry inh | Vaccinia Venus
O=C(COC(=O)Cc1c(F)cccc1Cl)NCc1ccc2c(c1)OCO2
→ i | -17.3%
Cc1nc2ccc(S(=O)(=O)NC(C(=O)NCc3ccc4c(c3)OCO4)C(C)C)cc2s1 (stereo not given)
→ i | -5.1%
COc1ccc(-n2c(/C=C/c3cccc4ccccc34)nc3ccccc3c2=O)cc1OC
→ -13.3% | -30.0%
CCN(CC)CC(O)CN1c2ccccc2Sc2ccccc21 (stereo not given)
→ u | -24.6%
CSc1ncccc1C(=O)OCC(=O)NCCC1=CCCCC1
→ i | -14.6%
COc1ccc(CNC(=O)COC(=O)CCCOc2ccc(Cl)cc2Cl)cc1OC
→ i | -8.4%
CCCCN(C)CCCNC(=O)c1ccc2c(c1)N(CC)C(=O)c1ccccc1S2=O (stereo not given)
→ -19.0% | -4.6%
COc1ccccc1NC(=O)/C=C/c1cc([N+](=O)[O-])ccc1OC(F)F
→ 11.0%[7.34 µM] | 0.0%[7.34 µM]
CCOc1cc(C)nc(NCc2ccccc2)n1
→ -2.8% | -26.9%
